Source: PubChem
FGF22 binding – FGF22 (human) thermal shift binding. actives 1.5% (n = 340,000). calls only at 9.99 µM. Q9HCT0. recombinant FGF22 thermal shift, SYPRO orange fluorescence; percent of sucrose octasulfate shift, DMSO zero. AID 651658;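 active = melting point raised past a set limit in the mean and every replicate; inconclusive = no clear call; three in four hits are not shown here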
Target sequence (Q9HCT0 whole entry, looked up): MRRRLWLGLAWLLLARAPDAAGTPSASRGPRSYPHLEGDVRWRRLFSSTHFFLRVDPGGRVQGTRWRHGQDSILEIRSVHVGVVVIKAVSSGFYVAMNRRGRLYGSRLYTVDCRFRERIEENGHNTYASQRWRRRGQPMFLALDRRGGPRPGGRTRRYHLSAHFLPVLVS
HNF4A DNA FP – change in binding of human HNF4 alpha to DNA; P41235; HNF4a-FITC DNA binding, fluorescence polarization, 1 h; activity change, % at 10 µM; actives 0.3% (n = 360,000); in the data active = activity change above about 30%, passing the limit was not always enough;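 also: controls were the assay level and a saturating level of protein; the project sought stronger binding though the title names inhibitors; some compounds called inactive have numbers as strong as hits; positive values seem to mean higher polarization but the record does not say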
UCH37 inh – inhibitors of human deubiquitinating enzyme UCH37; Q9Y5K5; actives 0.33% (n = 330,000); purified proteasome/UCH37, Ub-AMC cleavage fluorescence; inhibition, % (concentration not given with the values);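 active = mean of two replicates above 20%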;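 also: 0% = compound-free wells with enzyme and 100% = wells lacking proteasome; stock transfer was 100 nL into about 20 µL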
Target sequence (Q9Y5K5 whole entry, looked up): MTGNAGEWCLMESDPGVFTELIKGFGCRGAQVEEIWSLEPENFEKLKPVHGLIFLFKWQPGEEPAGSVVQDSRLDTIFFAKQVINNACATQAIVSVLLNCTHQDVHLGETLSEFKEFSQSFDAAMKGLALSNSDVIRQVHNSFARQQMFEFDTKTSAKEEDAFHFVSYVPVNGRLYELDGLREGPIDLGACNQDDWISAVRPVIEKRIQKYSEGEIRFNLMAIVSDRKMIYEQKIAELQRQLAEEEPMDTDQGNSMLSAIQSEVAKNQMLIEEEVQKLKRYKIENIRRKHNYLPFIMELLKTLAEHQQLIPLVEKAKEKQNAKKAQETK
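Material: human UCH37 enzyme supplied as purified proteasome complex. Measure: % inhibition of Ub-AMC cleavage fluorescence. Medium: pH 7.4 Tris-HCl (50 mM) with ovalbumin, ATP-MgCl2, DTT. Times: 30 min preincubation with enzyme, 25 min cleavage at room temperature. Detection: AMC fluorescence intensity at 355/460 nm.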
RanGTP-Impb inh – inhibitors of RanGTP-importin-beta interaction, primary screen, biochemical, FRET, CFP-Ran, YFP-importin-beta, homogeneous; actives 1.1% (n = 300,000); AID 2216; cell-free CFP-Ran/YFP-importin-beta FRET ratio; inhibition, % (no concentration beside the values);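 active = most replicates above 15%; inconclusive = exactly half above 15%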;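 also: 0% = DMSO wells and 100% = Ran loaded with GDP instead of GTP; wells of about 40 µL received 100 nL stock; the first replicate is given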
AF4-AF9 inh – blocks AF4 peptide binding to human AF9 | P42568 | AlphaScreen, biotin-AF4 peptide binding to FLAG-AF9 | inhibition, % at 10 µM | actives 0.47% (n = 350,000);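 active = every replicate reaching a set inhibition limit, whatever the replicate mean, cut at about 25% in these data; inconclusive = mean inhibition reaches that limit but some replicates miss it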;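 also: 0% = plate neutral control median and 100% = total signal loss; the record names both 10 and 1 µM as test concentration; the first replicate is given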
Target sequence (P42568 whole entry, looked up): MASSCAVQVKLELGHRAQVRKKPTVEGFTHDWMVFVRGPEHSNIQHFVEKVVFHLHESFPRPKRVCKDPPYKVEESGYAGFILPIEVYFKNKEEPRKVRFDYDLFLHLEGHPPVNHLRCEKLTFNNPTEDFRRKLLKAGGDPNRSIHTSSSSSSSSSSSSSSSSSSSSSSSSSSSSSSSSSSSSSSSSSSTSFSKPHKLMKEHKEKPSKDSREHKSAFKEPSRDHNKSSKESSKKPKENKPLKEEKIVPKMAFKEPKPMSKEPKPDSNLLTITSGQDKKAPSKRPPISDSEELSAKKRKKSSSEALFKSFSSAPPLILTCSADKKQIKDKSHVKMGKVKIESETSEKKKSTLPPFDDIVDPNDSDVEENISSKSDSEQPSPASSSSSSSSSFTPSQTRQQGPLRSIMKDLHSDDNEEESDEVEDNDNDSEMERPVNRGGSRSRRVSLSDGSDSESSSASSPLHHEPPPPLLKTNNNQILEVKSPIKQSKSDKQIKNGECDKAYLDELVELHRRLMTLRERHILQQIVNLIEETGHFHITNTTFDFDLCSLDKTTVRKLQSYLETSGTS
Vif TR-FRET – inhibitors of Vif binding to APOBEC3G peptide, primary screen, biochemical, TR-FRET, GST-Vif 1-94, biotin-A3G peptide, dose response retest (AID 1117319). TR-FRET GST-Vif / biotin-A3G peptide binding; higher % means a stronger effect; test concentration not given here; strong numbers were not always called active. inhibition, %, or IC50 in µM where a hit was titrated. actives 0.57% (n = 260,000);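 active = above the screen mean plus three standard deviations and confirmed in dose response; inconclusive = results disagree or hit not tested in dose response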;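 also: Vif residues 1-94 fused to GST binding biotinylated APOBEC3G peptide 110-148; 0% = full assay without inhibitor and 100% = GST in place of GST-Vif; retest series ran down from 100 µM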
E coli growth – inhibitors of Escherichia coli growth; actives 0.21% (n = 330,000); OD600 absorbance (concentration not given with the values); OD600, 23 h; active compounds read low;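 active = OD600 absorbance below the run mean of sample wells minus 3.6 SD, in any replicate, cut at about 0.56 in these data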;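 also: stock transfer was 300 nL into about 60 µL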
* = called active by the depositor; i = inactive; ? = inconclusive; . = no result given. These rows are one share of the data (hit frequency here may not be typical).

The first four records as a preview:
SMILES	FGF22 binding	HNF4A DNA FP	UCH37 inh	RanGTP-Impb inh	AF4-AF9 inh	Vif TR-FRET	E coli growth
CCOc1ccc(N2CC(C(=O)NCCC3=CCCCC3)CC2=O)cc1 (centres undefined)	i	0.1	4.3	-3.0	-18	3%	0.65
Cc1ccc(-c2nc3ccccc3o2)cc1NC(=S)NC(=O)c1cccs1	.	1.8	-0.4	-0.7	.	-3%	0.82
CCOc1ncccc1C(=O)OCC(=O)Nc1ccc(Cl)cn1	i	-3.1	4.8	.	-1.2	0%	0.7
Fc1ccc(-n2c(-c3cc(C4CC4)[nH]n3)n[nH]c2=S)cc1Cl	i	-2.5	3.9	2.0	.	-1%	0.67

Main list, repeating the preview:
SMILES	FGF22 binding	HNF4A DNA FP	UCH37 inh	RanGTP-Impb inh	AF4-AF9 inh	Vif TR-FRET	E coli growth
CCOc1ccc(N2CC(C(=O)NCCC3=CCCCC3)CC2=O)cc1 (centres undefined)	i	0.1	4.3	-3.0	-18	3%	0.65
Cc1ccc(-c2nc3ccccc3o2)cc1NC(=S)NC(=O)c1cccs1	.	1.8	-0.4	-0.7	.	-3%	0.82
CCOc1ncccc1C(=O)OCC(=O)Nc1ccc(Cl)cn1	i	-3.1	4.8	.	-1.2	0%	0.7
Fc1ccc(-n2c(-c3cc(C4CC4)[nH]n3)n[nH]c2=S)cc1Cl	i	-2.5	3.9	2.0	.	-1%	0.67
O=C(NCC(c1ccco1)N1CCc2ccccc2C1)c1cccc(Br)c1 (centres undefined)	.	-1.5	3.0	-4.9	-1.0	-3%	0.69
O=C1NCCCN1Cc1ccc(F)cc1	.	0.4	-0.9	?	.	-1%	0.72
Cc1ccccc1OCC(=O)Nc1sc2c(c1C#N)CCC2	i	1.3	4.1	-2.9	-4.3	3%	0.73
Cc1ccc(Cl)cc1-c1cc(C(=O)N2CCc3ccccc3C2)[nH]n1	i	-1.7	.	.	2.4	.	.
CC1(C(=O)NS(=O)(=O)Cc2ccccc2C(F)(F)F)CCN1C(=O)Cc1cccs1 (centres undefined)	i	-1.3	.	.	-2.6	.	.
CCN(CC1CCCO1)C(=O)CCc1nnc(CCc2ccccc2OC)o1 (centres undefined)	i	-1.4	-1.8	-2.3	-0.6	0%	0.68
Cn1cnnc1SC1c2cccc3cccc(c23)C1NS(=O)(=O)c1ccc(Cl)cc1 (centres undefined)	.	0.5	4.6	?	.	.	0.69
Nc1sc2c(c1C(=O)NC1CCS(=O)(=O)C1)CCCC2 (centres undefined)	i	7.3	4.4	4.7	-5.9	26%	0.71
CC(=O)c1ccc(Sc2nnc(C)s2)c([N+](=O)[O-])c1	i	0.3	0.2	?	-0.5	.	0.69
Cc1ccc(NC(=O)c2ccc(Cl)c(N3C(=O)CCC3=O)c2)cc1	i	55*	0.6	0.2	0.0	.	0.73
CCOC(=O)Cn1c(=O)n(Cc2ccco2)c(=O)c2ccc(C(=O)NCCc3ccccc3)cc21	.	2.1	-0.1	-2.6	.	0%	0.72
COc1ccc(/C=C(/NC(=O)c2cccc([N+](=O)[O-])c2)C(=O)O)cc1OC	i	0.4	5.4	3.7	-2.4	-5%	0.64
COc1cc(Cl)ccc1OCc1cc(C(=O)NCc2cc(C(C)C)no2)no1	i	1.9	0.6	-15	-1.6	-1%	0.69
c1ccc(CN=C2CCCc3ccccc3N2)cc1	i	-3.0	.	.	-3.4	-5%	.
CCN1CCN(C(=O)/C=C/c2ccc(F)cc2)CC1	i	1.1	6.7	2.4	2.1	.	0.64
O=C(Nc1nc2ccc(Cl)cc2s1)c1ccc(N2CCCCC2)c([N+](=O)[O-])c1	i	2.5	4.2	2.3	3.1	25%	0.68
CC(C)[C@@H](N)C(=O)NC[C@H]1O[C@@H](n2cnc3c(=O)[nH]c(N)nc32)[C@H](O)[C@@H]1O	i	-3.1	.	.	-0.5	.	.
CCOC(=O)c1c(NC(=O)CSc2nc3cc(Cl)ccc3c(=O)n2Cc2ccco2)sc(C(=O)N(C)C)c1C	i	2.2	-4.4	?	0.8	-28%	0.75
COC(=O)[C@]1(Cc2ccccc2)N[C@H](CN(C)C(=O)Nc2ccc(C(F)(F)F)cc2)[C@@H]2C(=O)N(C)C(=O)[C@@H]21	i	2.4	.	.	-1.4	.	.
O=S(=O)(c1cccs1)n1cccn1	.	-3.1	2.6	?	.	-6%	0.71
CCOc1cc(C=C(C(=O)OC)C(=O)OC)ccc1OCc1ccc([N+](=O)[O-])cc1	.	3.3	-0.4	.	.	?	0.71
SMILES	FGF22 binding	HNF4A DNA FP	UCH37 inh	RanGTP-Impb inh	AF4-AF9 inh	Vif TR-FRET	E coli growth
O=C(NCC(=O)N1CCN(C(c2ccccc2)c2ccccc2)CC1)c1ccccc1F	i	1.2	1.6	-1.3	-0.3	3%	0.67
O=C(CCNc1ccc(Br)cc1)c1cccc([N+](=O)[O-])c1	.	-0.4	8.0	0.5	-0.9	1%	0.68
COc1ccc(C(=O)NCS(=O)(=O)c2ccc(C)cc2)cc1	.	-3.0	0.8	1.5	.	28%	0.69
C[C@H](NC(=O)c1ccccc1Cl)C(=O)Nc1ccccc1F	i	-3.5	.	-1.4	1.4	.	.
NC(CCc1ccccc1)c1csc(Nc2nccc(C(F)(F)F)n2)n1 (centres undefined)	i	3.5	.	.	6.7	.	.
COc1ccc(NC(=O)C(c2ccccc2)c2ccccc2)c(OC)c1	i	6.3	2.4	0.8	-0.8	.	0.68
COc1cccc(C2NC(=O)c3ccccc3O2)c1OC (centres undefined)	.	1.6	2.7	-2.0	.	-2%	0.73
C/C(N)=C(/C#N)C(=O)CSc1nn(-c2ccc(Cl)cc2)c(=S)s1	i	-6.7	4.4	?	-5.5	14%	0.66
O=C(NCCc1ccc(O)c(O)c1)C1COc2ccccc2O1 (centres undefined)	i	-1.7	.	0.5	6.9	.	.
CC(C)N(c1ccccc1)c1ccc(NC(=S)NCCN(C)C)cc1	i	5.9	-0.7	-0.1	11	6%	0.66
CCN(CC)S(=O)(=O)c1ccc(C)c(NC(=O)CN2C(=O)NC3(CCCC3)C2=O)c1	i	-1.4	0.7	?	-1.9	4%	0.66
Cc1ccc(-c2nc(N=Nc3ccc(O)cc3)n[nH]2)cc1	.	4.3	9.7	1.6	.	?	0.68
Cc1cccc(OCC(=O)OCC(=O)N2CCCc3ccccc32)c1C	i	0.8	2.0	.	-1.1	-8%	0.66
Nc1ncnc2c1ncn2[C@@H]1O[C@H](C(=O)Nc2ccc(Oc3ccccc3)nc2)[C@@H](O)[C@H]1O	i	0.8	.	.	-1.5	.	.
Cn1ccc2c(/C=C/c3ccc(F)cc3)cc3c(c21)C1CCC3C1 (centres undefined)	i	12	.	.	44*	.	.
COc1ccccc1N1CCN(C(=O)C2CCCO2)CC1 (centres undefined)	.	-2.9	3.7	0.4	.	6%	0.67
O=[N+]([O-])c1ccc(C(O)CN2CCN(Cc3ccccc3)CC2)cc1 (centres undefined)	i	0.7	5.2	3.0	-1.0	1%	0.62
COc1cc(CCC(=O)N2CCN(c3ccc([N+](=O)[O-])cc3)CC2)cc(OC)c1OC	i	3.2	7.4	1.9	2.4	1%	0.7
c1ccc(OCCn2c(-c3ccco3)nc3ccccc32)cc1	i	9.8	1.0	-6.3	7.5	26%	0.65
CN(C)CCCNS(=O)(=O)c1ccc(NC2CCCCCC2)c([N+](=O)[O-])c1	.	6.8	4.9	5.8	12	.	0.67
O=C(COc1ccc(Br)cc1)N(CCO)CCO	i	-1.4	-0.1	3.0	-4.3	2%	0.7
COc1ccccc1N=CC1=C(O)CC(c2ccccc2)CC1=O (centres undefined)	i	0.8	-16	-3.6	2.1	.	0.71
COc1ccc(CNC(=O)CCCNC(=O)c2ccc(Cl)cc2)cc1OC	i	4.1	0.3	-3.2	-1.3	-1%	0.67
CCn1cc(CN2CCCC(C(=O)c3ccc(-c4ccccc4)c(F)c3)C2)cn1 (centres undefined)	i	0.1	5.4	-3.3	14	?	0.65
Cc1cc(N/C=C2\CCCCC2=O)no1	i	0.9	5.5	1.9	1.3	?	0.63
SMILES	FGF22 binding	HNF4A DNA FP	UCH37 inh	RanGTP-Impb inh	AF4-AF9 inh	Vif TR-FRET	E coli growth
COc1cccc(NC(=O)CN(c2cccc(C(F)(F)F)c2)S(C)(=O)=O)c1	.	-0.6	1.1	0.5	.	11%	0.68
CCc1cc(C(=O)Nc2nc(-c3ccccn3)cs2)sc1C	i	1.8	5.6	.	1.1	-10%	0.62
COc1ccc(S(=O)(=O)N2CCN(CC(O)CN3CCOCC3)CC2)cc1 (centres undefined)	i	1.3	.	.	-5.9	-9%	.
Cc1cccc(Nc2c3c(nc4ncnn24)CCC3)c1	i	1.9	4.8	-0.8	-1.6	-4%	0.73
CCOC(=O)c1[nH]c(C)c(C)c1C	.	-2.2	1.0	2.6	.	1%	0.7
Cc1ccc2nc(NC(=O)CC3Oc4ccccc4NC3=O)sc2c1 (centres undefined)	.	1.0	-1.1	1.2	0.0	?	0.7
Cc1[nH]c2ccccc2c1C(=O)CSc1ccccc1	.	-1.5	3.9	-2.2	.	.	0.68
Cc1ccc(-c2nc(CSCC(=O)NCc3cccnc3)c(C)o2)cc1	.	0.8	2.8	-0.9	.	31%	0.67
O=C(CSc1nnc(SCc2ccccc2)s1)N/N=C/c1c[nH]c2ccccc12	i	13	.	-6.8	-1.0	.	.
CC1(C)CC(=O)C2=C(C1)OC(N)=C(C#N)C2C1CC=CCC1 (centres undefined)	i	0.6	-2.7	2.6	4.4	17%	0.72
COc1ccc(/C=N/NC(=O)c2c(C)nc3ccc(Br)cn23)cc1OC	i	3.1	.	1.9	-9.3	-8%	.
C[C@@]12CCC=C[C@H]1[C@H](c1ccccc1Br)N(Cc1ccccc1)C2=O	i	-3.7	4.7	.	2.9	10%	0.65
COc1ncnc2c1oc1nc(CC(C)C)c3c(c12)CCCC3	.	-2.5	1.6	.	.	-4%	0.67
CN(CC(=O)Nc1ccccc1Br)CC(=O)NC(c1ccccc1)c1ccccc1	i	1.3	1.3	.	-2.4	2%	0.68
O=C(Nc1nnc(-c2ccco2)o1)C1CC1	i	-2.1	0.7	-1.3	0.8	1%	0.66
CC1(C)C(=O)NCCN1C(=O)CSc1nccc(-c2ccc(Br)cc2)n1	.	1.1	2.3	4.7	.	29%	0.71
COCCNC(=S)N/N=C(\C)c1ccc(Cl)c(Cl)c1	i	-5.5	.	-1.8	0.9	-2%	.
O=Cc1ccc(OCC(=O)NC(=O)NC2CCCCC2)cc1	.	-3.4	0.7	-1.7	.	-6%	0.74
Cc1cc(OC(C)C(=O)NCCCn2ccnc2)c2c(C)c(C)c(=O)oc2c1 (centres undefined)	i	-0.3	-105	2.7	-1.6	1%	0.73
Cc1cccc(NC(=O)N2CCc3ccccc3C2)c1C	i	0.4	3.4	0.1	0.4	.	0.66
CCn1cc(C(=O)OCC(=O)N(C)Cc2ccccc2)c(=O)c2ccc(C)nc21	i	5.1	.	2.6	-3.4	-2%	.
Cc1cc2nnc(SCC(=O)Nc3ccc(Cl)cc3)n2c(N)n1	i	1.4	6.8	-2.6	1.6	.	0.71
COc1ccc2[nH]c(C(=O)N3CCC(n4nccc4NC(=O)C4CC4)CC3)c(C)c2c1	i	0.6	-2.4	-0.9	0.8	-3%	0.69
CCCNC(=O)CCc1cc(C(C)(C)C)c(O)c(C(C)(C)C)c1	i	3.8	0.1	0.6	-2.8	-1%	0.68
COc1ccccc1/C=N/NC(=O)c1cc2c(OC)c(OC)ccc2[nH]1	i	2.9	.	1.5	7.9	-4%	.
CC(C)(C)OC(=O)C[C@@H]1C/C=C\C[C@H](CC(=O)N(CCO)Cc2ccccc2)C(=O)N[C@@H](c2ccccc2)COC1=O	i	-2.8	0.5	.	2.3	.	0.79
Cc1ccc(C(=O)Nc2nc(-c3ccccc3)c(-c3ccccc3)o2)cc1	.	-4.5	1.0	1.6	.	.	0.71
